High-throughput results (PubChem BioAssay)
HCMV UL50-53 inh: inhibitors of HCMV UL50-UL53 interaction, biochemical, HTRF | HCMV UL50-UL53 nuclear egress complex (human cytomegalovirus) | normalized percent inhibition | inhibition, % (test concentration not listed) | 0.15% of 190,000 active;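 active means both replicates at 50% or more, plus weaker picks with an unusually low signal ratio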;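 further: stock transfer was 100 nL into about 20 µL; 0% = negative control wells and 100% = wells with untagged competitor protein; inactives centre near -12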
Sa growth inh: S. aureus growth inhibition at 42 and 30 °C, primary screen, LtaS inhibitor project, RN4220, two temperatures | 0.53% of 170,000 active | OD600, 20 h, 42 °C; hits give low values | relative growth, % (no concentration beside the values) | AID 720641, 2013;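 active means growth at 42 °C up to 50% and 20 or more points under that at 30 °C, or under 10% at both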;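 further: 300 nL library stock went into each well; scaled to the means of positive and negative controls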
GIV-Gai inh: inhibitors of GIV peptide binding to Galpha-i3, primary screen, biochemical, fluorescence polarization, FITC-GIV GBA peptide, rat Galphai3 | 90 min; hits give low values; scaled: aluminum fluoride 0%, vehicle 100% | percent of control (FP), % (test concentration not listed) | 0.42% of 210,000 active | Guanine nucleotide-binding protein G(i) subunit alpha-3 (Rattus norvegicus), P08753;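 active means replicate mean at 85% of control or lower, very high polarization wells dropped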;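 further: wells of about 15 µL received 100 nL stock; the first replicate is given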
Target sequence (P08753 whole entry, looked up): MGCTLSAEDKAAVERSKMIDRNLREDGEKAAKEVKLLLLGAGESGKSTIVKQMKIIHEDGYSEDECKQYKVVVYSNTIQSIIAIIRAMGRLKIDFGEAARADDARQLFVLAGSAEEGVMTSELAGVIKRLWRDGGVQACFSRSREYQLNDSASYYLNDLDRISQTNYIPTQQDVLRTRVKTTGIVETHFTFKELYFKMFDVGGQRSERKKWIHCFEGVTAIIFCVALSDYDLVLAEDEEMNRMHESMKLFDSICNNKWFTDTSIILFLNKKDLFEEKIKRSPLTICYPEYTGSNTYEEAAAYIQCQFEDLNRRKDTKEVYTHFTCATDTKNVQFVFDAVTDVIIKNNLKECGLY
Sa growth inh second temp: further read-out of Sa growth inh, marked with its call; relative growth, %; measured here: growth at 30 °C;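 optical density after 20 h as mean of two plates; 100% = untreated growth and lower means inhibition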
The depositor's hits bear a star; · = no result given; & = joins results of further samples.

SMILES | HCMV UL50-53 inh | Sa growth inh | Sa growth inh second temp | GIV-Gai inh
CC(C)CN(CC(C)C)c1nnc(NC(=O)c2csc3c2CCCC3)s1 | · | 109 | 88 | 102
COc1ccc(C(CC#N)C2CCOC(C)(C)C2)cc1 (stereo unspecified) | -4 | 102 | 90 | ·
O=C(O)CCCNc1nc(Cl)nc(N2CCCCC2)n1 | -6 | 93 | 86 | 107
O=C(NCCOc1ccccc1)c1ccccc1 | 24 | 102 | 103 | 101
Cc1ccc(-n2nc3c(=O)n(CC(=O)Nc4cccc(Cl)c4)nc(C)c3c2C)c(C)c1 | -21 | · | · | 97
O=C(c1ccccc1)c1cc(Cl)ccc1NCC(=O)N1CCOCC1 | -83 | 94 | 82 | ·
Cn1c(=O)c2sccc2n2c(CCC(=O)NCc3ccccc3Cl)nnc12 | 7 | 91 | 99 | 98
Cn1c(=O)c2c(-c3ccccc3Br)n(CCc3ccccc3)cc2n(C)c1=O | -16 | 80 | 61 | 99
O=C(Cc1ccccc1)OCc1nnc(-c2ccccc2)o1 | -30 | 120 | 100 | 112
CC(Sc1nc(-c2ccccc2)cc(C(F)(F)F)n1)C(=O)N1CCCC1 (stereo unspecified) | 11 | 70 | 109 | 102
Cn1c2ccccc2c2c(C(=O)N3CCN(c4ccccc4F)CC3)cn(C3CCCC3)c(=O)c21 | -32 | · | · | 100
O=C(NCc1ccco1)c1ccccc1NCC(=O)N1CCCc2ccccc21 | -2 | 90 | 92 | ·
CCCCCn1c(=O)[nH]c2cc(C(=O)NCCCN3CCC(C)CC3)ccc2c1=O | -2 | · | · | 105
Clc1ccc(Cn2c(CNc3ccccc3)nc3ccccc32)cc1 | · | 96 | 68 | 101
O=C(CN1C(=O)CCn2nc(-c3ccccc3)cc21)NCc1ccc(F)cc1 | · | 88 | 87 | 97
CCOC(=O)C1CCN(c2nc(-c3cccc(Cl)c3)c3c(n2)-c2ccccc2OC3)CC1 | -12 | 84 | 88 | 100
O=C(Cn1cc2c(n1)CCCC2)NCCCN1CCCCC1 | · | 124 | 84 | 108
COc1ccc(C(=O)N2CCN(CCc3ccccn3)CC2)cc1 | 14&-17 | 107 | 84 | 105&103
COc1ccccc1N1CCN(c2c3c(nc4ncnn24)CCC3)CC1 | -24 | · | · | 101
O=C(NCCCN1CCOCC1)C1CCC(=O)N1CCc1ccccc1 (stereo unspecified) | -18 | 101 | 95 | 97
O=S(=O)(Nc1ccc(-c2ccc(N3CCOCC3)nn2)cc1)c1ccc(Br)cc1 | -18 | · | · | 98
COc1cccc(-n2cc(C(=O)N3CCCCCC3)c3ccccc3c2=O)c1 | · | 92 | 95 | 107
COc1ccc(N2C(=O)CCS2(=O)=O)cc1S(=O)(=O)Nc1ccc(OC(C)C)cc1 | -16 | · | · | 105
O=C(CN1C(=O)c2ccccc2S1(=O)=O)N1CCC2(CC1)OCCO2 | -1 | 103 | 98 | 103
CC1CC(=O)N(CC(=O)Nc2ccc3c(c2)OCCO3)c2ccccc2S1 (stereo unspecified) | 1 | 103 | 99 | 99
SMILES | HCMV UL50-53 inh | Sa growth inh | Sa growth inh second temp | GIV-Gai inh
CSc1ncc2c(n1)-c1ccccc1N(Cc1ccc(F)cc1)S2(=O)=O | · | 108 | 97 | 112
C=CCOc1nc(-c2cccs2)cc(-c2ccco2)c1C#N | -11 | 103 | 95 | 106
CCOC(=O)c1cc2c(=O)n3ccccc3nc2n(CCOC)c1=NC(=O)c1ccccc1 | -86 | 102 | 89 | 106
Cc1c(NC(=O)CSc2nnc(-c3cnccn3)s2)c(=O)n(-c2ccccc2)n1C | -65 | 88 | 88 | 101
O=C1CN(CCc2ccccc2)CC(=O)N1CCc1ccccc1 | -15 | 96 | 80 | 105
Cc1ccc(-c2csc(C/C(N)=N/O)n2)cc1 | -30 | 100 | 90 | ·
CCOc1ccc(NC(=O)CC2C(=O)N(c3ccccc3)C(=O)N2C2CCCCC2)cc1 (stereo unspecified) | -27 | 96 | 89 | 102
COC(=O)c1ccccc1NC(=O)Cn1c(=O)cc(-c2ccccc2)c2c(C)nn(C)c21 | · | 87 | 93 | 102
N=C(N)c1cc(C(F)(F)F)cc(C(F)(F)F)c1 | -42 | 93 | 89 | 107
O=C1C=C(c2ccccc2)OC2(CCCC2)O1 | -15 | 107 | 91 | 106
C=C(C)Cn1cnc2ccccc21 | -24 | 120 | 100 | 102
Cc1cc(NC(=O)CSc2nc3c([nH]c4ccccc43)c(=O)n2-c2ccc(Cl)cc2)no1 | · | 109 | 84 | 99
Cc1ccc(-c2csc(=Nc3ccccc3)n2Cc2ccc3c(c2)OCO3)cc1C | -4 | 103 | 101 | 103
COc1ccc(OC)c(NC(=O)NCCc2nc3cccnc3n2-c2ccccc2)c1 | 6 | · | · | 110
CC1(C)CN=c2s/c(=C\c3ccc(Cl)cc3)c(=O)n2C1 | -34 | 90 | 101 | ·
COc1ccc(CNC(=O)CCNS(=O)(=O)c2ccc3c(c2)oc(=O)n3C)cc1 | -3 | 106 | 82 | 107
Cc1ccc(NC(=O)Cn2nnc(-c3nc(-c4ccc(Cl)cc4)no3)c2N)cc1C | · | 111 | 87 | 106
CCCSc1nnc2c(n1)OC(c1cc(Br)c(O)c(OC)c1)Nc1ccccc1-2 (stereo unspecified) | -24 | · | · | 101
CN(C(=O)c1cc2cc(Br)ccc2oc1=O)C1CCCCC1 | 3 | 89 | 86 | 97
COc1cc(N)c(C(=O)c2nccc3cc(OC)c(OC)cc23)cc1OC | -62 | 105 | 102 | 104
Cc1ccc(N(Cc2nc3nc(C)cc(C)n3n2)S(C)(=O)=O)cc1 | -7 | · | · | 135
O=C1Cn2c(nc3ccccc32)N1c1cccc(C(F)(F)F)c1 | 5 | 89 | 99 | 109
Cc1ccc(N2CCN(C(=O)Nc3cn(CC(C)C)c(=O)c4ccccc34)CC2)c(C)c1 | · | 115 | 98 | 102
COc1ccc(OCC(=O)N2CCc3ccccc32)cc1 | -13 | 93 | 79 | 108
CCc1c(C)nc2ncnn2c1Sc1ccc(NC(=O)C2CC(=O)N(c3ccc(C)cc3)C2)cc1 (stereo unspecified) | 0 | · | · | 105
SMILES | HCMV UL50-53 inh | Sa growth inh | Sa growth inh second temp | GIV-Gai inh
O=C(CSCc1ccc2nsnc2c1)Nc1ccccc1 | -52 | 89 | 86 | ·
CCc1cc2c(cc3n2CC(C)(C(=O)NC2CCC(C)CC2)N(CC2CCCO2)C3=O)s1 (stereo unspecified) | -18 | · | · | 96
COC(=O)C1=C(C)N=C2SCCC(=O)N2C1c1ccc(OCc2ccccc2)c(OC)c1 (stereo unspecified) | -10 | 100 | 83 | 105
CC(=O)Nc1ccc(NC(=O)C2CCN(c3ccc(C(F)(F)F)cn3)CC2)cc1 | -15 | 96 | 95 | ·
CCN1C(C(=O)c2ccccc2)=C(OC(=O)c2ccccc2OC)c2ccccc2S1(=O)=O | -15 | 38 | 37 | 101
COc1ccc(N2CCN(CCNC(=O)c3ccc4nc5ccccc5c(=O)n4c3)CC2)cc1 | -82 | 98 | 89 | 98
OC1(c2ccc(Cl)cc2)CCN(Cc2cn[nH]c2-c2ccccc2)CC1 | -13 | 105 | 81 | 101
CCc1nc(-c2cc(S(=O)(=O)N3CCC(C(=O)N(C)C4CCCCC4)CC3)c(C)s2)no1 | -18 | · | · | 105
O=C(Nn1cnnc1)c1ccccc1CCc1ccccc1 | -3 | 89 | 103 | 106
CCC(=O)N1CCN(c2nc3c(C)c(Cl)ccc3s2)CC1 | -3 | 73 | 43 | 102
CCCOC(=O)C1=C(C)NC2=C(C(=O)C(C(=O)OC)C(C)C2)C1c1ccc(C)s1 (stereo unspecified) | -5 | 116 | 85 | 101
O=C(CN1C(=O)CCc2cc(S(=O)(=O)N3CCCC3)ccc21)N1CCN(c2ncccn2)CC1 | -13 | · | · | 115
CNC(=S)Nc1ccc(Cl)cc1 | -11 | 111 | 79 | ·
COc1cc(NC(=O)c2c(C)oc3c2C2=NCCN2C=N3)cc(OC)c1OC | · | 92 | 96 | 100
CCOC(=O)Cc1cc(=O)n(-c2nc3ccccc3s2)[nH]1 | · | 27 | 26 | 113
Cc1cc(C)cc(NC(=O)CC(NCc2cccnc2)C(=O)O)c1 (stereo unspecified) | · | 109 | 95 | 101
CS(=O)(=O)N1CCCc2cc(C(=O)N3CCc4ccccc4C3)ccc21 | -12 | · | · | 98
O=C(c1ccc(-c2ccc(F)cc2)o1)N1CCCN(S(=O)(=O)c2ccc(F)cc2)CC1 | -33 | 89 | 87 | ·
CCOC(=O)c1cnc2scnn2c1=O | -15 | 96 | 90 | ·
O=C(Oc1cccc(OC(=O)c2ccccc2F)c1)c1ccccc1F | · | 98 | 94 | 108
CCc1nn(CC(=O)NCCCOC)c(=O)c2cc3ccccc3n12 | -44 | 99 | 87 | 96
c1ccc(CSc2nccc(-c3ccc4c(c3)CCO4)n2)cc1 | -38 | 23 | 28 | 108
O=C(C1CCCCC1)N(Cc1cccnc1)c1nc2ccc(Cl)cc2s1 | · | 119 | 93 | 103
CCCCCCc1c(O)nc(SCC(=O)O)[nH]c1=O | -22 | 105 | 85 | 102
CC(=O)ON(Cc1c(C)no[n+]1[O-])Cc1c(C)no[n+]1[O-] | · | 84 | 83 | 109
SMILES | HCMV UL50-53 inh | Sa growth inh | Sa growth inh second temp | GIV-Gai inh
CC(=O)N1CCN(C2c3cccc4cccc(c34)C2NS(=O)(=O)c2ccc(Cl)cc2)CC1 (stereo unspecified) | · | 73 | 72 | 113
COc1cc2nc(COC(=O)c3ccco3)n(CC#N)c(=O)c2cc1OC | -8 | 86 | 89 | ·
COc1ccc(OC)c(-c2csc(-c3nnn(-c4ccc(C)c(C)c4)c3N)n2)c1 | -15 | · | · | 126
COc1ccc(N2CCN(C(=O)c3cc(-c4ccncc4)n[nH]3)CC2)cc1 | 16 | · | · | 106
CCCNC(=O)c1ccc(-n2c(-c3ccccc3)cc3c2CCCCC3)cc1 | 18 | 103 | 108 | 104
Brc1ccc2ncnc(NCC3CCCO3)c2c1 (stereo unspecified) | -10 | 87 | 81 | ·
CS(=O)(=O)c1ccsc1 | -6 | 97 | 86 | 99
O=c1ccc(-c2ccc(S(=O)(=O)N(CCN3CCOCC3)Cc3ccco3)s2)n[nH]1 | -114 | 104 | 86 | 102
CCOC(=O)CNC(c1ccccc1)c1cc(Br)ccc1NC(=O)c1ccc(Cl)cc1 (stereo unspecified) | -31 | 95 | 91 | 102
COc1cccc(CNS(=O)(=O)c2ccc3c(c2)oc(=O)n3C)c1 | -12 | 99 | 98 | 128

Among those listed so far, 15 have a Cl atom.
SMILES | HCMV UL50-53 inh | Sa growth inh | Sa growth inh second temp | GIV-Gai inh
O=C(O)CCCNc1nc(Cl)nc(N2CCCCC2)n1 | -6 | 93 | 86 | 107
Cc1ccc(-n2nc3c(=O)n(CC(=O)Nc4cccc(Cl)c4)nc(C)c3c2C)c(C)c1 | -21 | · | · | 97
O=C(c1ccccc1)c1cc(Cl)ccc1NCC(=O)N1CCOCC1 | -83 | 94 | 82 | ·
Cn1c(=O)c2sccc2n2c(CCC(=O)NCc3ccccc3Cl)nnc12 | 7 | 91 | 99 | 98
Clc1ccc(Cn2c(CNc3ccccc3)nc3ccccc32)cc1 | · | 96 | 68 | 101
CCOC(=O)C1CCN(c2nc(-c3cccc(Cl)c3)c3c(n2)-c2ccccc2OC3)CC1 | -12 | 84 | 88 | 100
Cc1cc(NC(=O)CSc2nc3c([nH]c4ccccc43)c(=O)n2-c2ccc(Cl)cc2)no1 | · | 109 | 84 | 99
CC1(C)CN=c2s/c(=C\c3ccc(Cl)cc3)c(=O)n2C1 | -34 | 90 | 101 | ·
Cc1ccc(NC(=O)Cn2nnc(-c3nc(-c4ccc(Cl)cc4)no3)c2N)cc1C | · | 111 | 87 | 106
OC1(c2ccc(Cl)cc2)CCN(Cc2cn[nH]c2-c2ccccc2)CC1 | -13 | 105 | 81 | 101
CCC(=O)N1CCN(c2nc3c(C)c(Cl)ccc3s2)CC1 | -3 | 73 | 43 | 102
CNC(=S)Nc1ccc(Cl)cc1 | -11 | 111 | 79 | ·
O=C(C1CCCCC1)N(Cc1cccnc1)c1nc2ccc(Cl)cc2s1 | · | 119 | 93 | 103
CC(=O)N1CCN(C2c3cccc4cccc(c34)C2NS(=O)(=O)c2ccc(Cl)cc2)CC1 (stereo unspecified) | · | 73 | 72 | 113
CCOC(=O)CNC(c1ccccc1)c1cc(Br)ccc1NC(=O)c1ccc(Cl)cc1 (stereo unspecified) | -31 | 95 | 91 | 102
